From PubChem
MenB inh – M. tuberculosis MenB inhibitors, primary screen, biochemical, absorbance. 1,4-dihydroxy-2-naphthoyl-CoA synthase (Mycobacterium tuberculosis (strain ATCC 25618 / …. MenB enzyme assay, absorbance read-out; some hits fall short of the stated cut. inhibition, %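 (about 12 µg/mL by stock and volumes)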. 100,000 compounds, 0.43% hits. AID 540299, 2011;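 active = mean of two replicates above 30%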;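 note: 0% = no compound and 100% = wells with inactive enzyme; the first replicate is given; strong numbers were not always called active; inactives centre near -10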
Target sequence (P9WNP5 whole entry, looked up): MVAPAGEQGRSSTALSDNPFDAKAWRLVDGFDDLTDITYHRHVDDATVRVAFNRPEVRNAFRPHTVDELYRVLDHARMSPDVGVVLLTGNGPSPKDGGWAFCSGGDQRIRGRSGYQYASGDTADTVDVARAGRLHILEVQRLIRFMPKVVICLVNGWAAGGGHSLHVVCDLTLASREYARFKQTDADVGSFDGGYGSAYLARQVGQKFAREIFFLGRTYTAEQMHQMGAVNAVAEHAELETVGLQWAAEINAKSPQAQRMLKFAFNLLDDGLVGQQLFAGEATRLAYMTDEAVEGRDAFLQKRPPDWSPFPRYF
MbtI inh – MbtI salicylate synthase inhibitors, primary screen, biochemical, fluorescence intensity | inhibition, %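 (about 17 µg/mL by stock and volumes)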 | AID 493033, 2011 | 100,000 compounds, 0.89% hits | P9WFX0 | purified MbtI enzyme, fluorescence intensity read-out;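 active = above 50% in both replicates, above 80% if mildly self-fluorescent; inactive = the rest, strongly fluorescent compounds included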;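 note: 0% = mean of negative and 100% = mean of positive controls; one replicate is shown; some compounds called inactive have numbers as strong as hits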
PV pol inh – poliovirus RdRp elongation inhibitors, primary screen, biochemical, fluorescence polarization, total intensity; 150,000 compounds, 0.66% hits; AID 588519, 2011; Genome polyprotein (Poliovirus type 1 (strain Mahoney)), P03300; % elongation, % (compound at 16.7 µg/mL); poliovirus polymerase elongation; stronger effect = lower value; in the data active = % elongation below about 90%; note: some results filed as inactive read as strong as hits
Target sequence (P03300 1749-2209 limits assumed): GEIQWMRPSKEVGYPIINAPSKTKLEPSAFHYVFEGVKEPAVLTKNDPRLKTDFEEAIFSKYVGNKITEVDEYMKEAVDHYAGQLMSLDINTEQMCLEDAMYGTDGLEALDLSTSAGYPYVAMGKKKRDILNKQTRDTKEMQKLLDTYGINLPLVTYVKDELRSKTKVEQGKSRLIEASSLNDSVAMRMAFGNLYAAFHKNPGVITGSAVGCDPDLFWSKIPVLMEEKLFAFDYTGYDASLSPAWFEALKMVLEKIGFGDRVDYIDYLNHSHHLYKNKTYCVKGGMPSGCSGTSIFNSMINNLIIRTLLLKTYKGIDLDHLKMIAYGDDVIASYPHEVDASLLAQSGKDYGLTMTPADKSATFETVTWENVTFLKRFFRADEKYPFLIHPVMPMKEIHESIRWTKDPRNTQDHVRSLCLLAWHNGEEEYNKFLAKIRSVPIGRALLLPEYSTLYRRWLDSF
PV pol inh intensity – further read-out of PV pol inh, marked with its call; % elongation; measured here: total intensity read-out; formula for this scale not given here;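 total fluorescence in place of polarization; lower means less elongation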
* marks the source's active call; other numbers are inactive results; . = not tested or not shown; & = joins results of further samples.

Assay codes – A = MenB inh; B = MbtI inh; C = PV pol inh; D = PV pol inh intensity
CCC(CO)NS(=O)(=O)c1cc(-c2nnc3c4ccccc4c(C)nn23)ccc1OC (configuration not stated)
  A = 5	B = 12	C = 100	D = 98

Cn1cc(-c2nc3ccccc3s2)c(N)n1
  A = -6	B = -30	C = 99	D = 126

CCCN(Cc1nnc(-c2ccco2)o1)C(=O)CSc1nc2ccccc2n1C
  A = -5	B = 102	C = 106	D = 119

Cc1ccc2occ(/C=N/N3CC(=O)NC3=O)c(=O)c2c1
  A = -4	B = -4	C = 102	D = 105

COC(=O)NC(Nc1ccccc1C(F)(F)F)C(=O)c1ccccc1 (configuration not stated)
  A = -72	B = .	C = 105	D = 99

COc1ccccc1NC(=O)C(C)Sc1nnc(N)s1 (configuration not stated)
  A = 0	B = 21	C = 110	D = 113

NCCn1ccc2ccccc21
  A = -18	B = 6	C = 99	D = 101

CC(=O)Oc1ccc2c(c1)OC1(c3ccc(OC(C)=O)cc3OC(C)=O)CCCC1C21CCCC1 (configuration not stated)
  A = -14	B = .	C = 107	D = 112

Cc1c(-c2nc3ccccc3s2)oc2ccccc12
  A = -30	B = 27	C = 109	D = 122

CCc1ccc(/C=c2\sc3nc(C4COc5ccccc5O4)nn3c2=O)cc1 (configuration not stated)
  A = -12	B = -18	C = 101	D = 96

COC(=O)c1ccc(NC(=O)C(C)Sc2n[nH]c(C)n2)cc1 (configuration not stated)
  A = -33	B = -3	C = 102	D = 100

Cc1ccc(-c2nsc(SCC(=O)NCc3ccc4c(c3)OCO4)n2)cc1
  A = 7	B = -1	C = 102	D = 98

Cc1ccc2c(c1)N(C(=O)NCc1ccccc1)CC(C)O2 (configuration not stated)
  A = -14	B = 7	C = 104	D = 106

Cc1nnc(SCC(=O)NCC2CCCO2)n1C1CCCCC1 (configuration not stated)
  A = -16	B = -3	C = 101	D = 107

Nc1c(O)cccc1C(=O)CC(N)C(=O)O (configuration not stated)
  A = -2	B = -4	C = 98	D = 100

CCOC(=O)c1ccc2nc(C(F)(F)F)cc(N3CCN(c4ccccc4)CC3)c2c1
  A = -5	B = -15	C = 101	D = 107

Cc1cc(C)cc(OCC(=O)N2Cc3ccccc3CC2C(=O)O)c1 (configuration not stated)
  A = -19	B = 3	C = 106	D = 113

COc1ccccc1C1=NOC(Cn2c(NCc3ccccc3)nc3c2c(=O)n(C)c(=O)n3C)C1 (configuration not stated)
  A = 7	B = 4	C = 101	D = 103

Cc1[nH]c2ccccc2c1CCN
  A = -6	B = .	C = 107	D = 106

COC(=O)c1ccc(Cn2cc(Br)cn2)cc1
  A = .	B = -6	C = 101	D = 106

COc1ccc2c(c1OC)C(=O)OC2C/C(=N\NC(N)=O)c1ccccc1 (configuration not stated)
  A = -25	B = 3	C = 100	D = 96

O=C(c1ccc(F)cc1)N1CCC2(CC1)OCCO2
  A = 0	B = -18	C = 101	D = 103

N=C(N)SCCS(=O)(=O)c1ccccc1
  A = 21	B = 15	C = 102	D = 97

N#C/C(=C\Nc1ccccc1F)c1nc(-c2cc3ccccc3oc2=O)cs1
  A = -15	B = -2	C = 103	D = 104

Cc1nn(C2CCS(=O)(=O)C2)c2nc(C3CC3)cc(C(=O)NC3CCCCCC3)c12 (configuration not stated)
  A = 6	B = 100	C = .	D = .

Compounds listed so far with sulfur, in the order listed:
Assay codes – A = MenB inh; B = MbtI inh; C = PV pol inh; D = PV pol inh intensity
CCC(CO)NS(=O)(=O)c1cc(-c2nnc3c4ccccc4c(C)nn23)ccc1OC (configuration not stated)
  A = 5	B = 12	C = 100	D = 98

Cn1cc(-c2nc3ccccc3s2)c(N)n1
  A = -6	B = -30	C = 99	D = 126

CCCN(Cc1nnc(-c2ccco2)o1)C(=O)CSc1nc2ccccc2n1C
  A = -5	B = 102	C = 106	D = 119

COc1ccccc1NC(=O)C(C)Sc1nnc(N)s1 (configuration not stated)
  A = 0	B = 21	C = 110	D = 113

Cc1c(-c2nc3ccccc3s2)oc2ccccc12
  A = -30	B = 27	C = 109	D = 122

CCc1ccc(/C=c2\sc3nc(C4COc5ccccc5O4)nn3c2=O)cc1 (configuration not stated)
  A = -12	B = -18	C = 101	D = 96

COC(=O)c1ccc(NC(=O)C(C)Sc2n[nH]c(C)n2)cc1 (configuration not stated)
  A = -33	B = -3	C = 102	D = 100

Cc1ccc(-c2nsc(SCC(=O)NCc3ccc4c(c3)OCO4)n2)cc1
  A = 7	B = -1	C = 102	D = 98

Cc1nnc(SCC(=O)NCC2CCCO2)n1C1CCCCC1 (configuration not stated)
  A = -16	B = -3	C = 101	D = 107

N=C(N)SCCS(=O)(=O)c1ccccc1
  A = 21	B = 15	C = 102	D = 97

N#C/C(=C\Nc1ccccc1F)c1nc(-c2cc3ccccc3oc2=O)cs1
  A = -15	B = -2	C = 103	D = 104

Cc1nn(C2CCS(=O)(=O)C2)c2nc(C3CC3)cc(C(=O)NC3CCCCCC3)c12 (configuration not stated)
  A = 6	B = 100	C = .	D = .

Later entries:
Assay codes – A = MenB inh; B = MbtI inh; C = PV pol inh; D = PV pol inh intensity
COc1cccc(C2CC(=O)NC(SC)=C2C#N)c1 (configuration not stated)
  A = -13	B = -8	C = 104	D = 102

Cc1[nH]c2ccccc2c1C1(O)C(=O)N(C(C)C)c2ccccc21 (configuration not stated)
  A = -7	B = 15	C = 98	D = 101

Cc1ccc(S(=O)(=O)C(F)F)cc1
  A = -28	B = -10	C = 106	D = 102

CSc1ccccc1C(=O)NC1CCCCC1
  A = -11	B = -17	C = 99	D = 101

COc1c(Cl)cc(C(=O)N(Cc2ccc(N(C)C)cc2)Cc2ccco2)cc1Cl
  A = 6	B = -7	C = 101	D = 103

Cc1ccc(OCc2nc(CC(=O)O)cs2)cc1
  A = -33	B = -6	C = 103	D = 92

CC(NC(=O)C1C2C=CC(C2)C1C(=O)O)C12CC3CC(CC(C3)C1)C2 (configuration not stated)
  A = 4	B = -16	C = 102	D = 103

N=C1C(c2ccccc2)=C(O)CN1NC(=O)CSc1nc2ccccc2[nH]1
  A = -14	B = 0	C = 104	D = 106

CC(=O)Oc1cc2c(cc1Br)C1CCC3(C)C(OC(C)=O)CCC3C1CC2 (configuration not stated)
  A = -25	B = -4	C = 105	D = 107

CN1C(=O)CC(=O)NC1=O
  A = -59	B = -8	C = 99	D = 105

Cc1cccc(N=C2NC(=O)/C(=C/c3ccc(F)cc3)S2)c1C
  A = -26	B = -5	C = 92	D = 117

Cc1c(C(=O)N2CC(C)OC(C)C2)oc2ccccc12 (configuration not stated)
  A = -30	B = -6	C = 102	D = 101

O=c1cc(Nc2cccc(O)c2)c2ccccc2o1
  A = -26	B = 26	C = 104	D = 102

C(=C\c1ccccc1)/CSc1nnnn1-c1ccccc1
  A = -28	B = -4	C = 105	D = 105

CC1=C(/C=C/C(C)=C\C=C\C(C)=C\C(=O)O)C(C)(C)CCC1
  A = 2	B = -19	C = 100&100	D = 104&103

CC1(C(=O)Nc2ccccc2N2CCOCC2)Cc2ccccc2C(=O)O1 (configuration not stated)
  A = -6	B = -11	C = 104	D = 98

C(=C\c1ccccc1)/CN1CCNCC1
  A = -6	B = .	C = 105	D = 113

CCOc1ccc(C=C2C(=O)N(CC)C(=S)N(CC)C2=O)c(O)c1
  A = 12	B = 5	C = 128	D = 132

COc1cccc(N2CCN(CC(=O)c3ccc4ccn(C(C)=O)c4c3)CC2)c1
  A = -23	B = 19	C = 99	D = 100

CCc1ccc(N2CN(CCc3ccccc3)CNC2=S)cc1
  A = -2	B = -9	C = 101	D = 101

O=C(CSc1oc(-c2ccccc2)nc1S(=O)(=O)c1ccccc1)Nc1ccc(F)cc1
  A = -24	B = 0	C = 102	D = 107

O=S(=O)(Nc1ccccc1NS(=O)(=O)c1ccc(F)cc1)c1ccc(F)cc1
  A = -32	B = -41	C = 100	D = 94

Cc1cc(C2(c3cc(C)c(N)c(C)c3)CCCCC2)cc(C)c1N
  A = -5	B = -8	C = 100	D = 98

CCCCNc1ncc2c(n1)c(=O)c(C#N)c1[nH]c3ccccc3c(=O)n12
  A = -55	B = 13	C = 133	D = 150

Cn1c(=O)c2c(ncn2CC(=O)NCc2ccco2)n(C)c1=O
  A = 9	B = -1	C = 101	D = 103

O=C1/C(=C/c2cccc(F)c2)COc2ccccc21
  A = -32	B = 6	C = 104	D = 101

CCOc1ccc2nc(SCC(N)=O)[nH]c2c1
  A = -11	B = 24	C = 97	D = 99

Cn1c(CSc2ccccc2)nc2ccccc21
  A = -45	B = 5	C = 102	D = 103

O=C1c2ccccc2C(=O)N1c1ccccc1
  A = -34	B = 1	C = 101	D = 103

C[C@H](CS)C(=O)N1CCC[C@H]1C(=O)O
  A = 14	B = -10	C = 100	D = 101

CC(C)C(Sc1nncn1C(C)C)C(=O)NC(N)=O (configuration not stated)
  A = -11	B = -14	C = 105	D = 108

CCSC1=C(C#N)C(c2cccs2)C(C(=O)Nc2ccccc2)=C(C)N1 (configuration not stated)
  A = -32	B = 45	C = 104	D = 105

C=CCNC(=O)CSc1nccc(-c2sc3sc(Br)c(C)c3c2C)n1
  A = 4	B = -12	C = 105	D = 111

O=C(Nc1cccc(C(F)(F)F)c1)c1cccc(F)c1
  A = .	B = -8	C = 102	D = 105

O=C(O)/C=C/c1cn(CCC(=O)O)nc1-c1ccccc1
  A = 0	B = -5	C = 98	D = 98

O=C1NC(=O)/C(=C\c2ccccc2C(F)(F)F)S1
  A = -20	B = 100*	C = 103	D = 101

CN(C(=O)CSc1c2c(nc3cc(Cl)ccc13)CCCC2)c1ccc(F)cc1
  A = 12	B = -23	C = 101	D = 99

Cc1cc(-c2nnc(-c3ccccc3)c(-c3ccccc3)n2)c(C)o1
  A = -20	B = 24	C = 100	D = 104

CCN1CCN(CCCNC(=O)c2ccc3nc(/C=C(\O)c4cccc(OC)c4)c(=O)[nH]c3c2)CC1
  A = -42	B = 8	C = 107	D = 116

CN(CCO)c1nc(-c2ccccc2)c2cc(Br)ccc2n1
  A = -56	B = -14	C = 105	D = 100

OCCn1nc2c3ccccc3nc-2n(-c2ccccc2)c1=S
  A = -40	B = 72	C = 85*	D = 85*

CC(=O)N/C(N)=N\c1nc(=O)c2ccccc2s1
  A = -25	B = -5	C = 101	D = 100

CC1CCCC(NC(=O)COC(=O)c2ccc(Br)o2)C1C (configuration not stated)
  A = .	B = -5	C = 103	D = 104

Cc1cc(C(=O)OCC(=O)N(C)c2ccccc2)c2ccccc2n1
  A = 0	B = 41	C = 101	D = 101

c1csc(-c2nnc(CSc3cccc4cccnc34)o2)c1
  A = 0	B = .	C = 107	D = 112

CC(OC(=O)C1=Cc2ccccc2OC1)C(=O)NCC1CCCO1 (configuration not stated)
  A = -46	B = -3	C = 102	D = 103

CCOC(=O)c1cnc(N2CCc3ccccc3C2)nc1N
  A = -5	B = -11	C = 103	D = 104

O=C(Nc1cccc(F)c1)c1cc(S(=O)(=O)NCCc2ccccc2)ccc1F
  A = -10	B = -11	C = 105	D = 103

CCN(CC)S(=O)(=O)c1ccc(NC(=O)C2=NN(c3ccccc3)C(=O)CC2)cc1
  A = -4	B = -360	C = 100	D = 92

c1coc(CNc2c(-c3ccc(N4CCCC4)cc3)nc3cnccn23)c1
  A = -153	B = 25	C = 103	D = 108

Carrying on:
Assay codes – A = MenB inh; B = MbtI inh; C = PV pol inh; D = PV pol inh intensity
Cc1nn(-c2ccccc2)c2nc(Cl)c(C=C(C#N)C#N)cc12
  A = -96	B = -23	C = 103	D = 105

Cc1cccc(C(=O)NCc2nnc(SCC(=O)c3ccccc3)n2C)c1
  A = 6	B = 29	C = 100	D = 104

CC(C)NC(=O)C1CCN(C(=O)N2CCOc3ccccc32)CC1
  A = -4	B = -16	C = 102	D = 101

Cc1nccn1-c1c2c(c(C#N)c3nc4ccccc4n13)CCCC2
  A = -8	B = 1	C = 103	D = 109

c1ccc(Nc2nc(N3CCCCC3)c3ccccc3n2)cc1
  A = -21	B = 107	C = 96	D = 105

O=C(/N=C1/c2ccccc2CN1c1ccccc1)Nc1ccccc1
  A = -3	B = -6	C = 95	D = 97

CCNc1nc2c(c(=O)n(C)c(=O)n2C)n1CC
  A = -2	B = 10	C = 102	D = 103

O=C(NCC1CCCO1)/C(=C/c1ccccc1)NC(=O)c1ccccc1 (configuration not stated)
  A = -2	B = .	C = 107	D = 111

COC(=O)c1sccc1S(=O)(=O)Nc1ccccc1
  A = -14	B = -8	C = 103	D = 102

Cc1c(Cl)cccc1-n1c(SCc2cc(=O)n3ccccc3n2)nc2n[nH]c(C)c2c1=N
  A = -21	B = -32	C = 100	D = 105

O=C(CC1c2ccccc2CCN1S(=O)(=O)c1cccs1)OCC(=O)c1ccc(Cl)s1 (configuration not stated)
  A = -45	B = -7	C = 105	D = 100

CCOc1ccc2c(C)cc(=O)oc2c1
  A = 1	B = 103	C = 102	D = 105

O=C(O)C(Oc1ccc2c3c(c(=O)oc2c1)CCCC3)c1ccccc1 (configuration not stated)
  A = 8	B = -163	C = 98	D = 101

COc1cc(S(=O)(=O)N2CCC(n3c(=O)[nH]c4ccccc43)CC2)ccc1-n1cnnn1
  A = -2	B = -11	C = 104	D = 101

CN(C)[C@@H]1C(=O)C(C(N)=O)=C(O)[C@@]2(O)C(=O)C3=C(O)c4c(O)ccc(Cl)c4[C@@H](O)[C@H]3C[C@@H]12
  A = 1&6	B = 3&-3	C = 100&99	D = 109&101

O=C(NC1CCCCC1)/C(=C/C=C\c1ccccc1)NC(=O)c1ccccc1
  A = -8	B = .	C = 110	D = 107
